# Source: PubChem BioAssay (PCMD)
# Calb biofilm kill: mixtures killing C. albicans biofilm; C. albicans biofilm persisters + clotrimazole, fluorescence viability; primary screen in compound mixtures of four per well; inhibition, % at 7.6 µM; 120,000 compounds, 0.02% hits; AID 1242;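 active means inhibition above 30.3% in the primary screen of four-compound pools, then above 30% when the compound was retested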;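 further: compounds exposed to preformed 24 h biofilms for 48 h; the number belongs to the whole pool; some results filed as inactive read as strong as hits; inactives centre near 12; 0% = biofilm with clotrimazole alone and 100% = kill control; retested singly at about 60 µM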
#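 Incubation: 24 h biofilm formation, then 48 h compound exposure, 37 °C | Material: C. albicans biofilms | Buffer or medium: RPMI/MOPS medium, pH 7.0 | Measured by: 2-h Alamar Blue fluorescence, 535/590 nm excitation/emission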
# * hit, by the source's call.
SMILES	Calb biofilm kill
CCN1CCN(c2c(Cl)cccc2NC(=O)c2ccc3nsnc3c2)CC1	8
O=[N+]([O-])c1cc(C(F)(F)F)ccc1N1CCCNCC1	23
N/C(=N\c1nc2c(c(=O)[nH]1)CCCC2)Nc1ccc(Oc2ccccc2)cc1	14
COc1cc(/C=C(\C#N)C(=O)Nc2cccc3ncccc23)ccc1O	41
CC(C)c1ccc(/C=C/C(=O)NC2CCCCC2)cc1	4
Cn1c(SCC(=O)O)nnc1-c1ccc2ncccc2c1	23
Clc1ccc(-c2cc3ccccc3nc2N2CCOCC2)cc1	13
S=c1[nH]cnc2scc(-c3ccc(Cl)cc3)c12	10
O=C(C1=NNCC1c1ccc(Cl)cc1)C1CO1 (centres undefined)	19
CN(c1ncc(C(F)(F)F)cc1Cl)N1C(=O)c2cccc(N)c2C1=O	21
CC1(C)Cc2nc(N3CCCC3)c(C#N)cc2CO1	11
Cc1ccc(N/C=C(\C2OC(=O)c3ccccc32)[N+](=O)[O-])c(C)c1 (centres undefined)	13
Cc1ncc(CN2CCCC(CCC(=O)NCc3ccccc3F)C2)s1 (centres undefined)	5
CCNC(=S)Nc1ccc2cn[nH]c2c1	8
CCOC(=O)c1sc(NC(=O)Nc2cccc(Cl)c2)cc1C	19

# New compounds follow:
SMILES	Calb biofilm kill
O=C1ON=C(c2ccccc2)/C1=C\c1ccco1	11
NC(=O)c1ccc(CN2CCC(Cc3ccccc3)CC2)cc1	10
c1ccc(Nc2c(-c3ccco3)nc3ccccn23)cc1	15
CCN(CC)CCNC(=O)CSc1c2c(nc3cc(Cl)ccc13)CCCC2	13
O=C(Nc1nc2ccccc2s1)NC1CCCCC1	15
CCOC(=O)N1CCC(N(CCN(C)C)C(=S)Nc2cccc(SC)c2)CC1	3
CSC1=NC(C)(C)CC2(C)Nc3ccccc3N12 (centres undefined)	16
Cc1nc2cc(F)ccc2n1C1CCN(C(=O)c2c(F)cccc2F)CC1	5
Cn1c(=O)c2c(nc(CN3CCCCC3)n2Cc2c(F)cccc2Cl)n(C)c1=O	19
CN(/C(=N/S(=O)(=O)c1cccs1)c1ccccc1)c1ccc(O)cc1	-2
O=C(Cn1c2ccc(F)cc2c2nc3n(c(=O)c21)CCS3)Nc1ccccc1C(F)(F)F	13
CCCN1CCN(c2ccc(S(N)(=O)=O)cc2[N+](=O)[O-])CC1	10
CN1C(=O)/C(=C\C=C2/CCCN2C)N(C)C1=S	19
COc1ccccc1CNc1ncnc2cc(OC)c(OC)cc12	6
CC12CN3CCN(CC(C3)/C1=N\NC(=O)c1ccccc1N)C2	13

# Additional results
SMILES	Calb biofilm kill
COc1ccc(-c2cn[nH]c2-c2ccc(OCc3ccc([N+](=O)[O-])cc3)cc2O)cc1	16
Cc1cc(C)cc(NC(=O)C(Sc2ncnc3ccccc23)c2ccccc2)c1 (centres undefined)	7
COc1cc(/C=N/NC2=NCCCCC2)ccc1O	21
Nc1nc(Cl)nc2ccc(Br)cc12	10
O=C(Nc1ccc(N2CCOCC2)c(Cl)c1)c1cccnc1Cl	8
COc1ccc(N2CCN(C(=O)c3ccc4c(=O)n(CCc5ccc(OC)c(OC)c5)c(=O)[nH]c4c3)CC2)cc1	8
COc1cccc2c(=O)cn[nH]c12	6
C=C1c2cc3c(cc2NC(=S)N1Cc1ccccc1)OCO3	3
O=C(c1ccccc1)N1CCN(C(=S)NCc2ccco2)CC1	11
O=C(NCc1ccccc1)C1Cc2ccccc2CN1C(=O)c1ccco1 (centres undefined)	10
CCOC(=O)n1c(O)c(N=NC(N)=S)c2cc(C)ccc21	18
CCOc1cc(/C=N/NC(=O)Cc2ccc(C(F)(F)F)cc2[N+](=O)[O-])ccc1O	18
COc1ccc(CN2CCNC(=O)C2CC(=O)N2CCCCO2)c(OC)c1 (centres undefined)	2
Cc1nnsc1C(=O)N/N=C/c1ccccc1	11
O=C(N/N=C/c1ccc(O)cc1)/C(=C/c1ccccc1)CCO	9

# Entries shown so far that contain an aryl methoxy group (7):
SMILES	Calb biofilm kill
COc1cc(/C=C(\C#N)C(=O)Nc2cccc3ncccc23)ccc1O	41
COc1ccccc1CNc1ncnc2cc(OC)c(OC)cc12	6
COc1ccc(-c2cn[nH]c2-c2ccc(OCc3ccc([N+](=O)[O-])cc3)cc2O)cc1	16
COc1cc(/C=N/NC2=NCCCCC2)ccc1O	21
COc1ccc(N2CCN(C(=O)c3ccc4c(=O)n(CCc5ccc(OC)c(OC)c5)c(=O)[nH]c4c3)CC2)cc1	8
COc1cccc2c(=O)cn[nH]c12	6
COc1ccc(CN2CCNC(=O)C2CC(=O)N2CCCCO2)c(OC)c1 (centres undefined)	2

# The list continues.
SMILES	Calb biofilm kill
COC(=O)c1c(NC(=O)CN2C(=O)c3ccccc3C2=O)sc(Cc2ccc3c(c2)OCO3)c1C	5
CCc1ccc(CN(C)Cc2nc(Cc3ccccc3)no2)nc1	12
CCC[n+]1cn(/C(C(=S)Nc2cccc(Cl)c2C)=C(/[O-])c2ccc(OC)c(OC)c2)c2ccccc21	2
Cc1cccc(-n2cc(CN(C)Cc3nccn3C)c(-c3cccc(F)c3)n2)c1	3
CCC(=O)Nc1ccc2c(c1)nc1n2CCN(C2CCCCC2)C1	15
CCCCc1ccc(-n2nnnc2SCC(=O)Nc2cc(OC)c([N+](=O)[O-])cc2C)cc1	10
O=C(OCc1cc(=O)n2cc(Br)ccc2n1)c1ccc(Cl)c(S(=O)(=O)NCc2ccccc2)c1	4
Nc1ccc(N2CCCCC2)c(Cl)c1	17
Cc1ccc(Nc2nc(CSc3nnc(-c4ccccc4C)n3C)cs2)cc1	2
CCc1cc2c(=O)n(Cc3ccco3)c(SCC(=O)N(C)C3CCS(=O)(=O)C3)nc2s1 (centres undefined)	8
CCOc1ccc2c(c1)OC(c1ccccc1)(C(F)(F)F)NC2=O (centres undefined)	9
O=C(CSc1nnc(SCc2ccccc2)s1)N/N=C/c1c[nH]c2ccccc12	7
COc1ccc(OC)c(NC(=S)NCc2ccc(S(N)(=O)=O)cc2)c1	4
CCOc1ccc(-n2c(=O)c3c4c(sc3n(CC(=O)NCC3CCCO3)c2=O)CCC4)cc1 (centres undefined)	11
CCOC(=O)Cc1csc(/N=C/c2c(O)n(-c3ccc(C)c(C)c3)c(=O)c3ccccc23)n1	12

# More structures.
SMILES	Calb biofilm kill
Cc1ccnc2nc(C(=O)OCC(=O)NCCc3ccccc3)nn12	8
Cc1cccc(-n2c(O)c(C=Nc3ccccc3-c3n[nH]c(=S)[nH]c3=O)c3ccccc3c2=O)n1	21
CCc1cc2c(NC3CCCC3)ncnc2s1	21
Cc1cc(NS(=O)(=O)c2ccc(NC(=O)CSc3nnc(-c4ccco4)n3C)cc2)nc(C)n1	11
CC1=NN(C(N)=S)C(=O)C1N=Nc1ccc(O)cc1 (centres undefined)	31
CCOC(=O)c1cc(NC(=O)/C=C\C(=O)O)ccc1Cl	-30
O=c1[nH]ncc(N/N=C\c2cccnc2)c1Cl	31
Cc1ccc(C(C)NC(=O)c2ccco2)cc1 (centres undefined)	10
O=C(CCc1c[nH]c2ccccc12)NCC1COc2ccccc2O1 (centres undefined)	21
CCOc1ccc(-c2nnn(CCC#N)n2)cc1OC	9
O=C(CO/N=C/c1ccccc1OC(F)F)NC1CCCC1	8
O=C(CNC(=S)NC(=O)c1cccs1)c1ccccc1	18
CN(Cc1ccccc1)C(=O)COC(=O)Cn1cnc2ccccc21	6
O=C(Nc1ccc(Cl)cn1)c1ccc2c(Cl)c3c(nc2c1)CCC3	17
CSc1ccccc1C(=O)C1CCCN(C(=O)c2cc(C(C)C)no2)C1 (centres undefined)	17

# Next part
SMILES	Calb biofilm kill
O=C(Nc1cccnc1)Nc1ccc(Cl)cc1Cl	11
O=C(CCn1cnnn1)Nc1ccc(Cl)cc1Cl	13
CCOC(=O)c1sc(S(C)=O)c2c1CCc1conc1-2 (centres undefined)	21
Cc1c(Nc2nc(-c3ccc(Cl)cc3)cs2)c(=O)n(-c2ccccc2)n1C	11
Cc1ccc(OCC(=O)Nc2cc(S(=O)(=O)N3CCCCC3)ccc2C)c([N+](=O)[O-])n1	7
Cc1cccc(NCc2ccccc2OCc2ccccc2F)c1	11
COc1ccc(OC)c(-c2c(C#N)c(N)nc3c2c(=O)nc2sccn23)c1	10
COc1cccc(C(=O)COc2cccc(NC(=O)c3ccco3)c2)c1	12
O=C(CCNC(=O)c1ccccc1Cl)Nc1cc(C(F)(F)F)ccc1Cl	5
O=C(NCc1nnc(SCC(=O)N2CCCc3ccccc32)o1)c1c(F)cccc1Cl	2
O=C(NC1CCCCCC1)C(=S)NCCc1ccccc1	16
Oc1ccc(-c2[nH]ncc2-c2cnn(-c3ccccc3)c2)c(O)c1	-3
O=C(c1cccc(NS(=O)(=O)c2ccc(F)c(F)c2)c1)N1CCN(C(c2ccccc2)c2ccccc2)CC1	5
Cc1[nH][nH]c(=O)c1C=NCc1cccs1	13
O=C(NCc1nnc2c3ccccc3c(-c3ccccc3)nn12)c1ccccc1Cl	0

# The list goes on:
SMILES	Calb biofilm kill
CCOC(=O)CCC(NC(=O)CCCCCCCCC(=O)NC(CCC(=O)OCC)C(=O)OCC)C(=O)OCC (centres undefined)	11
CC1(C)Cc2c(c(-c3ccco3)nc3sc4c(NCCN5CCOCC5)ncnc4c23)CO1	15
O=C(CCC(=O)NNC(=O)Nc1cccc(Cl)c1)NCc1ccccc1	-1
CCC1(c2ccc(Cl)cc2)NC(=S)N(c2ccc(C)cc2)N1 (centres undefined)	9
O=C(CN1C(=O)C2C3C=CC(C3)C2C1=O)Nc1nncs1 (centres undefined)	16
O=C(Nc1ccccc1)NC(Cc1ccc(O)cc1)C(=O)O (centres undefined)	14
Nc1ccc(C(=O)N2CCCC2)cc1	13
COc1ccc(Br)cc1/C=N/NC(=O)c1cccc(S(=O)(=O)N2CCOCC2)c1	6
C/C(=N\NC(=O)c1c(Cl)cnn1C)c1cccc(NC(=O)C(C)C)c1	18
CN(C)C(=O)CSc1ncnc2scc(-c3ccccc3)c12	7
CN(C)C(=S)Nc1ccc(Br)cc1Cl	14
CCC(C)C(=O)Nc1cc(Cl)ccc1C(=O)O (centres undefined)	13
CCc1cc2ccccc2nc1SCC(=O)Nc1cc(OC)c(OC)cc1C(=O)O	12
CCCCCCOC(=O)Cc1c(C)nc(N)[nH]c1=O	24
CCC(=O)Oc1ccc(C(=O)Nc2ccccc2C(=O)NCC(C)C)cc1	13

# Continuation.
SMILES	Calb biofilm kill
COc1cccc(NC(=O)c2ccc(NC(=O)C(C)(C)C)cc2)c1	19
COc1ccc(-c2ccc(CCC(=O)O)o2)cc1	21
COc1ccc(-c2noc(CCCC(=O)N3CCOCC3)n2)cc1	-9
COc1ccc(/C=N/NC(=O)c2nc(-c3ccccc3)n(-c3ccccc3)n2)cc1	23
Cc1ccc2[nH]c(=O)c(CN(CCCN(C)C)C(=S)NCCc3ccccc3)cc2c1	7
O=c1c2ccccc2nc(COc2ccccc2)n1/N=C/c1ccc(O)c(O)c1	30
COc1ccc(CNC(=O)COC(=O)CC2CC3CCC2C3)cc1OC (centres undefined)	4
NS(=O)(=O)c1cc(C(=O)NCCc2ccccn2)ccc1Cl	24
O=C(CCl)N=c1sccn1Cc1cccc2ccccc12	6
Cc1ccc(Nc2nc3ccccc3c(=O)s2)cc1C	10
Cc1ccc(NC(=S)N(C)Cc2cn(C)c3ccccc23)cc1	9
O=C(NCc1cccnc1)c1ccc(-c2cc3ccccc3oc2=O)cc1	-4
COc1ccc(C(=O)C2CCCN(C(=O)CCC3=NNC(=O)CC3)C2)c(C)c1 (centres undefined)	7
COc1ccc(NS(=O)(=O)c2cc(NC(=O)[C@@H](NC(N)=O)C(C)C)ccc2C)cc1	12
O=C(OCc1cccc([N+](=O)[O-])c1)c1cccnc1	13

# Other compounds follow.
SMILES	Calb biofilm kill
CCN(CC)S(=O)(=O)c1cc(NC(=O)Cn2ncc(Cl)c(Cl)c2=O)ccc1C	22
Fc1cccc(CSc2nc3ncc(Cl)cc3[nH]2)c1	15
CCC1(C)CC(CCN(Cc2ccco2)C(C)=O)(c2ccccc2)CCO1 (centres undefined)	6
O=C(COC(=O)Cc1ccc(Cl)cc1Cl)Nc1ccccc1OC(F)F	15
COc1ccc(S(=O)(=O)N(C)C)cc1NS(=O)(=O)c1ccc(F)c(F)c1F	8
O=C(C[n+]1cccc(CNC(=O)c2ccc(OC(F)F)cc2)c1)Nc1cccc(C(F)(F)F)c1	12
O=C(Cn1nc(Cc2cccnc2)c2ccccc2c1=O)Nc1cc(F)ccc1F	8
COC1=C(Nc2ccc(C)cc2)C(=O)c2ccccc2C1=O	4
CCN(CC)S(=O)(=O)c1ccc(N2C(=O)Nc3ccccc3N2O)cc1	8
CCCOc1ccc(N/C=C/C(=O)C(C)(C)C)cc1	3
COc1ccccc1NC(=O)CN(Cc1ccco1)C(=O)c1cncc(Br)c1	18
COC(=O)N/N=C(\C)c1ccc(C)c([N+](=O)[O-])c1	18
C/C(=N\NC(=O)c1nc2ccccn2c1C)c1ccco1	9
CCCCCCCCn1c2c(c(=N)c3ccccc31)CCC2	28
CC(C)(C)c1ccc(/C=C2\SC(=O)N(CCNC(=O)c3cccc(S(=O)(=O)N4CCOCC4)c3)C2=O)cc1	14
C=CCOc1cccc(/C=N/NC(=O)CN(c2cc(Cl)ccc2OC)S(=O)(=O)c2ccc(C)c([N+](=O)[O-])c2)c1	12
C[C@H](N=C1NS(=O)(=O)c2ccccc21)C(=O)OCc1cc([N+](=O)[O-])cc2c1OCOC2	16
Cc1ccc(C(=O)NNC(=O)c2cccc(S(=O)(=O)N3CCN(c4ccccc4)CC3)c2)cc1	8

# A portion of the library; the hit share may differ from the screen's.
